Mtb betalactam – beta-lactam sensitization of Mtb H37Rv, H37Rv. hit rate 0.27% among 330,000. inhibition, % at 25 µM. M. tuberculosis H37Rv growth with meropenem, percent inhibition; hits of this screen are not shown here;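 active means about 74% or more and at least 40 points above the plate without the antibiotic, then above 30% in a dose series; inconclusive means first-round hits that could not be retested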;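 further: growth measured after seven days incubation then overnight dye step; 0% = bacteria only wells and 100% = bacteria with antibiotic; twin plates without the antibiotic show which effects depend on it; some results filed as inactive read as strong as hits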
* = called active by the depositor; u = inconclusive.

SMILES	Mtb betalactam
COc1ccc(/C=C/C(=O)c2cccc(-n3cnnn3)c2)cc1O	0
COc1cccc(C(c2c(NC(=O)c3ccco3)sc(C)c2C)N2CCOCC2)c1 (centres undefined)	2
CCOc1ccc(CN(C)c2ccc(S(=O)(=O)N3CCN(C)CC3)cc2[N+](=O)[O-])cc1OC	-1
CC(C)c1cccc(C(C)C)c1OC(=O)[C@H]1OC(C(C)(C)C)=C[C@@H]1c1ccccc1	-8
CC(=O)c1cccc(NC(=O)COC(=O)Cn2cnc3ccccc32)c1	-6
CCOc1ccc(NC(=O)Cc2ccc(S(=O)(=O)N3CCCCC3)cc2)cc1OCC	0
O=C(Nc1ccccc1)Nc1cccc2ccccc12	67
CCc1cccc2c(C(=O)COC(=O)c3cnc(C)cn3)c[nH]c12	1
O=C(Nc1nncs1)c1cc(-c2ccco2)nc2ccccc12	6
Cn1c(SCc2cccc([N+](=O)[O-])c2)nc2ccccc2c1=O	9
CCOc1ccc(NC(=O)c2ccc(-c3csc(C)n3)cc2)cc1	2
O=C(COC(=O)COc1ccccc1)Nc1ncc([N+](=O)[O-])s1	-6
O=C(Cc1ccccc1[N+](=O)[O-])Nc1ccc(S(=O)(=O)N2CCCC2)cc1	u
CN(C(=O)c1ccc(NC(=O)Cc2ccc(NC(=O)C3CCN(C(=O)C4CCCCC4)CC3)cc2)cc1)C1CC1	0
Cc1noc(C)c1S(=O)(=O)N(C)C[C@H]1Oc2ccc(NS(=O)(=O)c3ccccc3)cc2C(=O)N([C@H](C)CO)C[C@@H]1C	-1
O=C(Nc1cc(-c2nc3ncccc3o2)ccc1Cl)c1ccc2c(c1)OCO2	-5
O=C(NNC(=O)c1ccccc1F)c1cccc(S(=O)(=O)N2CCc3ccccc32)c1	3
CCn1c(SCC(=O)Nc2ccc3c(c2)OCCO3)nnc1C1CC1	-4
O=C(COC(=O)c1ccccc1Br)NC1CCCCCCC1	71
Cc1ccc(S(=O)(=O)N2CCOCC2)cc1NC(=O)COC(=O)COc1ccccc1[N+](=O)[O-]	-2
CC(=O)c1c(C)[nH]c(C(=O)COC(=O)c2c(C)noc2C)c1C	-5
Cc1ccc(OCC(=O)N(Cc2ccccc2)c2c(N)n(Cc3ccccc3)c(=O)[nH]c2=O)c(C)c1	6
CCN1CCN(S(=O)(=O)c2ccc(Cl)c(C(=O)N(C)Cc3cccs3)c2)CC1	-9
O=C1C=C(Nc2ccc(F)cc2)c2ccccc2C1=O	99
COc1ccc(CNC(=O)COC(=O)C(CCSC)N2C(=O)c3ccccc3C2=O)cc1 (centres undefined)	-2
Cc1cc(NC(=O)CSc2nnc(-c3ccccc3C)n2C)no1	5
CN(c1ccc(-c2csc(NC(=O)C3CC(=O)N(Cc4ccco4)C3)n2)cc1)S(C)(=O)=O (centres undefined)	9
CC1CC(C)CN(C(=O)C(C)N2CCN(S(=O)(=O)c3cccs3)CC2)C1 (centres undefined)	-13
COc1ccc(-c2sc3ccccc3c2-c2ccc(O)cc2)cc1	0
COc1cccc(-c2ncc3ccccc3c2COC(=O)c2ccc(Br)cc2)c1	5
O=C(c1ccc(OC2CCN(CCO)CC2)cc1)N1CCCC1	u
Cn1nc(C(=O)NNC(=O)CCOc2ccc(C(C)(C)C)cc2)c2ccccc2c1=O	-6
CCCn1c(SCC(=O)Nc2ccccc2C(=O)NC2CC2)n[nH]c1=O	-1
Cc1ccc(S(=O)(=O)N2CCN(C(=O)C3CC(=O)N(c4ccc5c(c4)OCCO5)C3)CC2)cc1 (centres undefined)	-5
O=C1c2ccccc2NC(c2ccc(-c3ccc(C(F)(F)F)cc3)o2)N1O (centres undefined)	12
Nc1cc(C(=O)OCC(=O)Nc2cccc(S(=O)(=O)N3CCOCC3)c2)ccc1Cl	-9
COC(=O)C1=C(c2ccc(F)cc2OCc2ccccc2)C[C@@H]2CC[C@H]1N2C(=O)NCc1ccccc1Br	2
COc1ccc(-c2ccc3c(c2)S(=O)(=O)c2cccc(C(=O)N4CCN(c5c(Cl)cncc5Cl)CC4)c2C3=O)cc1OC	12
CC(=O)Nc1cccc(C(=O)NC(C)c2ccc(-n3ccnc3)cc2)c1 (centres undefined)	-9
COc1cc(OC)cc(C(=O)NC(C(=O)Nc2ccc3c(c2)OCCO3)C(C)C)c1 (centres undefined)	-10
COc1ccc(CCNC(=O)COC(=O)/C=C/c2ccc(OC)cc2OC)cc1	-1
COc1ccc(-n2cnnc2SCC(=O)NC2CCCCC2)cc1	-4
CC(=O)c1ccc(OCCCC(=O)NC2CCCCC2C)cc1 (centres undefined)	-5
CC(=O)Nc1ccc(C(=O)OCC(=O)N(c2ccccc2)C2CCS(=O)(=O)C2)cc1 (centres undefined)	-5
O=C(c1ccco1)N1CCN(C(=O)c2ccc(-c3ccc(Cl)cc3)o2)CC1	-9
CC1CCCC(NC(=O)CN2C(=O)NC(C)(c3cc(F)ccc3F)C2=O)C1C (centres undefined)	1
CC1(C)CC[C@]2(C(=O)O)CC[C@]3(CO)C(=CCC4[C@@]5(C)C[C@H](O)[C@H](O)[C@@](C)(C(=O)O)C5CC[C@]43C)[C@@H]2C1 (some centres undefined)	5
Cc1csc(=O)n1CC(=O)OCC(=O)Nc1ccccc1C(C)C	-5
Cc1ccc(NC(=O)COc2ccccc2C(N)=O)cc1S(=O)(=O)N1CCCCCC1	-10
COc1ccc(Cl)cc1NC(=O)CN(C)CC(=O)Nc1c(C)n(C)n(-c2ccccc2)c1=O	-4
C[C@H](CO)N1C[C@H](C)[C@@H](CN(C)C(=O)Nc2ccc3c(c2)OCO3)Oc2ccc(NS(=O)(=O)c3ccc(F)cc3)cc2C1=O	7
O=C(CC1S/C(=N/N=C2CCCCCC2)NC1=O)Nc1ccc(Br)cc1F (centres undefined)	0
COC(=O)c1c(-c2ccccc2OC)sc2ccc(OC)cc12	8
CCc1noc(C)c1C(=O)OCC(=O)NCc1ccc(Cl)cc1	3
COc1ccccc1C(=O)NCCC(=O)NCc1ccccn1	-5
N#CCCN(Cc1cccnc1)C(=S)NC(=O)c1ccccc1	-1
N#Cc1ccc(CN2CCN(C(=O)c3cn(Cc4ccccc4)nc3-c3cccnc3)CC2)cc1	-6
Cn1nc(C(=O)NC2CCC(O)CC2)c2ccccc2c1=O (centres undefined)	-6
CC1CCC(NC(=O)CNC(=O)Cc2cccc3ccccc23)CC1 (centres undefined)	1
O=C(CSc1n[nH]c(=O)n1C1CC1)Nc1ccc(F)c(Cl)c1	-5

A draw from above in order of count of non-hydrogen atoms, low to high:
SMILES	Mtb betalactam
O=C(CSc1n[nH]c(=O)n1C1CC1)Nc1ccc(F)c(Cl)c1	-5
CCc1noc(C)c1C(=O)OCC(=O)NCc1ccc(Cl)cc1	3
Cc1csc(=O)n1CC(=O)OCC(=O)Nc1ccccc1C(C)C	-5
CC1CCC(NC(=O)CNC(=O)Cc2cccc3ccccc23)CC1 (centres undefined)	1
O=C(c1ccco1)N1CCN(C(=O)c2ccc(-c3ccc(Cl)cc3)o2)CC1	-9
CC1CCCC(NC(=O)CN2C(=O)NC(C)(c3cc(F)ccc3F)C2=O)C1C (centres undefined)	1
CC(=O)Nc1ccc(C(=O)OCC(=O)N(c2ccccc2)C2CCS(=O)(=O)C2)cc1 (centres undefined)	-5
Cc1ccc(NC(=O)COc2ccccc2C(N)=O)cc1S(=O)(=O)N1CCCCCC1	-10
COc1ccc(Cl)cc1NC(=O)CN(C)CC(=O)Nc1c(C)n(C)n(-c2ccccc2)c1=O	-4
N#Cc1ccc(CN2CCN(C(=O)c3cn(Cc4ccccc4)nc3-c3cccnc3)CC2)cc1	-6
CC1(C)CC[C@]2(C(=O)O)CC[C@]3(CO)C(=CCC4[C@@]5(C)C[C@H](O)[C@H](O)[C@@](C)(C(=O)O)C5CC[C@]43C)[C@@H]2C1 (some centres undefined)	5
C[C@H](CO)N1C[C@H](C)[C@@H](CN(C)C(=O)Nc2ccc3c(c2)OCO3)Oc2ccc(NS(=O)(=O)c3ccc(F)cc3)cc2C1=O	7

Next section
SMILES	Mtb betalactam
COc1ccc(C2=NC(C)(C)Cc3cc(OC)c(OC)cc32)cc1OC	2
Cc1ccc(NC(=O)c2nc[nH]c2C(=O)NCc2ccccc2)cc1	u
NNc1nc(-c2ccccc2Cl)nc2ccccc12	6
CCN(CC(=O)Nc1ccc2c(c1)OCCO2)Cc1nc2cc(Cl)ccc2c(=O)[nH]1	58
COC(=O)C1=C(c2cccc(OCc3ccccc3)c2)C[C@@H]2CC[C@H]1N2C(=O)NCCOc1ccc(OC)cc1	9
C[C@H](CO)N1C[C@H](C)[C@@H](CN(C)Cc2ccccc2)Oc2c(NS(=O)(=O)c3cn(C)cn3)cccc2C1=O	-4
CCc1ccc([C@H]2C(C(=O)O)=C[C@@H](C(C)(C)C)N2S(=O)(=O)c2ccc(C)cc2)cc1	2
CC(=O)c1c(C)[nH]c(C(=O)CN(C)CC(=O)Nc2ccccc2Cl)c1C	-3
CCOc1ccc(S(=O)(=O)n2ccc(C)n2)cc1	-11
CC(C)C[C@H]1CN=C(Nc2ccccc2)N1CC(C)C	-6
Cc1nccn1CC(=O)c1ccc(O)c(O)c1	0
CCN(Cc1ccccc1)C(=O)c1ccc(C)c(S(=O)(=O)N2CCCCC2)c1	4
Cn1cnnc1SCC(=O)NC1CC1	1
C=CCn1c(SCC(=O)Nc2cc(C)on2)nnc1-c1ccccc1OC	1
COC(=O)C1=C(c2cccc(OCc3ccccc3)c2)C[C@@H]2CC[C@H]1N2C(=O)NCc1ccccc1	7
O=C(NN=Cc1ccc(N2CCOCC2)s1)c1ccc([N+](=O)[O-])cc1	9
Cc1cccc(Oc2ccc(NS(=O)(=O)c3ccc(C)c(C(=O)O)c3)cc2)c1	-4
Cc1ccc2c(c1)-n1c(nc3ccccc3c1=O)C(Cc1ccccc1)NC2=O (centres undefined)	1
COC(=O)COc1ccc(S(=O)(=O)NCc2ccc3c(c2)OCO3)cc1	5
Cc1cc(NC(=O)C(C)Oc2ccc(Cl)cc2Cl)no1 (centres undefined)	8
COc1ccccc1N(C)S(=O)(=O)c1ccc(C(=O)Nc2nc(C)c(C(C)=O)s2)cc1	-3
CCCn1c(N)c(N(CCOC)C(=O)c2cc3c(s2)CCC(CC)C3)c(=O)[nH]c1=O (centres undefined)	0
CC(Sc1nc(N)cc(=O)[nH]1)C(=O)NCC(=O)Nc1ccc(F)c(F)c1F (centres undefined)	2
COc1cc(Cl)c(C)cc1NC(=O)CN1C(=O)C2CC=CCC2C1=O (centres undefined)	-7
C/C(=C\c1ccc2c(c1)OCO2)C1Nc2cccc3cccc(c23)N1	69
C=CCC[C@@H](Cc1ccc(F)cc1)C(=O)OC[C@@H](Cc1c[nH]c2ccccc12)NC(=O)[C@@H](CC=C)CC(=O)N(CCO)Cc1ccccc1	-3
COc1cccc(NC(=O)CN(C)C(=O)c2cc(S(=O)(=O)N3CCCCCC3)ccc2OC)c1	-2
C=CC[C@@H](CC(=O)NCCO)C(=O)N[C@@H](COC(=O)[C@@H](CC=C)CC(=O)OC(C)(C)C)Cc1c[nH]c2ccccc12	3
CCCCCCCC(=O)OCC(COC(=O)CCCCCCC)OC(=O)CCCCCCC	-5
COc1cccc(NC(=O)CN(C)C(=O)c2c(C)nn(CC(C)C)c2Cl)c1	-1
CN1CCC(N(C)S(=O)(=O)c2ccc(F)cc2F)CC1	-13
O=C(COC(=O)CNC(=O)c1ccc([N+](=O)[O-])o1)Nc1ncc(C(F)(F)F)cc1Cl	4
Cc1cc(C(=O)N2CC(C)CC(C)C2)c(C)o1 (centres undefined)	4
O=C(NCc1ccco1)c1ccccc1SCC(=O)N1CCCC1	1
COc1ccc(S(=O)(=O)N2CCN(CC(=O)NCCc3cccs3)CC2)cc1	-4
CCn1c(C)nc2cc(C(=O)NN=Cc3ccc([N+](=O)[O-])cc3)ccc21	-9
CC1Cc2ccccc2N1C(=O)CN(C)CC(=O)Nc1ccc(F)cc1 (centres undefined)	-3
COc1cc(OC)cc(C(=O)NCC(=O)NCc2ccccn2)c1	-2
CNC[C@@H]1Oc2c(NC(=O)Nc3ccc(F)cc3)cccc2C(=O)N([C@H](C)CO)C[C@@H]1C	-8
COC(=O)c1c(-c2ccccc2OC)sc2cc3c(cc12)OCO3	6
O=C1CC/C=C\C[C@@H](CC(=O)N(CCO)Cc2ccccc2)C(=O)N[C@H](Cc2c[nH]c3ccccc23)CO1	-2
C#CCOCCOCCOCCNc1nc(N2CCN(C(=O)CCCCCCCCCCNC(=O)Cn3cc(CCCCCN)nn3)CC2)nc(N2CCN(C(=O)CCCCCCCCCCNC(=O)[C@H]([C@@H](C)CC)n3cc(CCCCN=C(N)N)nn3)CC2)n1	-10
CC(C)(C)NC(=O)CC1C[C@H](C(=O)N2CCOCC2)[C@@]2(C)c3[nH]c4ccccc4c3CCN2C1=O (some centres undefined)	-8
Cc1ccc(N2C(=O)C3CCCN3C2=S)c(C)c1 (centres undefined)	3
C[C@H](CO)N1C[C@H](C)[C@@H](CN(C)S(=O)(=O)c2cccs2)Oc2ccc(NS(=O)(=O)c3ccccc3)cc2CC1=O	1
N#Cc1c(SCC(=O)Nc2nccs2)sc2c(O)cc(=O)[nH]c12	-5
CCOCCn1c(C)c(C(=O)OCC)c2cc(O)c3ccccc3c21	44
Cc1ccc2oc(=O)n(Cc3ccc(OC(C)C)cc3)c2c1	0
CCOC(=O)CNC(=O)CSc1ncccc1-c1nc2ccccc2[nH]1	-13
O=C(Nc1ccccc1F)c1ccc2c(c1)OCO2	3
CC1CCC2(CC1)NC(=O)N(CC(=O)Nc1cccnc1Cl)C2=O (centres undefined)	-4
CCCOc1ccc(/C=C/C(=O)OCC(=O)N(C)c2c(N)n(Cc3ccccc3)c(=O)[nH]c2=O)cc1OCC	-1
Cc1ccc(NC(=O)C2CCN(S(C)(=O)=O)CC2)cc1Cl	25
Cc1cc(C)n(-c2ccc(C(=O)NCC(c3ccco3)N3CCCC3)cc2)n1 (centres undefined)	-7
CCOc1ccc(CN(C)C(=O)c2cc(S(=O)(=O)N3CCCC3)ccc2C)cc1	-9

Rewritten with each value named: entries from further up
> Cc1cc(C)n(-c2ccc(C(=O)NCC(c3ccco3)N3CCCC3)cc2)n1 (centres undefined)
- Mtb betalactam: -7

> O=C(Nc1ccccc1F)c1ccc2c(c1)OCO2
- Mtb betalactam: 3

> CCCOc1ccc(/C=C/C(=O)OCC(=O)N(C)c2c(N)n(Cc3ccccc3)c(=O)[nH]c2=O)cc1OCC
- Mtb betalactam: -1

Only part of the results is shown; rates above refer to the full screens.
